Vaccinia Venus: inhibitors of vaccinia virus (Venus reporter); Vaccinia virus Venus reporter expression, fluorescence; Potency, µM (top dose mostly 36.5 µM), without a hit: at the top dose activity change, negative = inhibition, most hits filed as inhibitors; 330,000 tested, 0.46% active; AID 720580; active means well fitted inhibition curve with a large enough effect; inconclusive means small, poorly fitted or top-dose-only effect; inactive means no such curve, though single readings can be large or run the other way; tested in A549 cells; note: nearly all actives have a fitted effect of over 30% in size; inactives centre near -10
Vaccinia mCherry: vaccinia inhibition (mCherry reporter); Vaccinia virus mCherry reporter infection, fluorescence; about a quarter of the inactives have no number; Potency, µM (top dose mostly 36.5 µM), for the others: at the top dose activity change, negative = inhibition, usual class: inhibitors; 310,000 tested, 0.63% active; AID 720579; active = well fitted inhibition curve with a large enough effect; inconclusive = small, poorly fitted or top-dose-only effect; inactive = no such curve, though single readings can be large or run the other way; tested in A549 cells; note: nearly all actives have a fitted effect of over 35% in size; inactives centre near -10
The depositor's hits bear a star; i = inactive; ? = inconclusive; . = no result given; & = joins results of further samples; [ ] = another dose, or the depositor's remark. % is set by controls: 0 for no effect and ±100 for the full control effect; potency is the fitted concentration of half-maximal effect. No enrichment for hits; 0.87% or so of the library scored in one or more.

Start of the data: the first 6 records (preview)
compound | Vaccinia mCherry | Vaccinia Venus
COc1ccc(NC(=O)Nc2ccc(C(=O)N3CCOCC3)cc2)c(OC)c1 | i | -11%
Cc1cccc(Oc2coc3cc(OC(=O)c4cccs4)ccc3c2=O)c1 | -4% | -2%
O=C(CN(C(=O)c1csnn1)c1ccc(F)cc1)NCc1ccc2c(c1)OCO2 | -2% | 5%
NC(=O)c1cc(S(=O)(=O)N2CCc3ccccc3C2)cs1 | i | -12%
O=C1CCN(C(=O)Cc2ccccc2)c2ccccc21 | i | -5%
Nc1c(C(=O)Nc2ccc(Cl)c(C(=O)O)c2)sc2nc3c(cc12)CCCC3 | -11% | -13%

This part in full, from the start:
compound | Vaccinia mCherry | Vaccinia Venus
COc1ccc(NC(=O)Nc2ccc(C(=O)N3CCOCC3)cc2)c(OC)c1 | i | -11%
Cc1cccc(Oc2coc3cc(OC(=O)c4cccs4)ccc3c2=O)c1 | -4% | -2%
O=C(CN(C(=O)c1csnn1)c1ccc(F)cc1)NCc1ccc2c(c1)OCO2 | -2% | 5%
NC(=O)c1cc(S(=O)(=O)N2CCc3ccccc3C2)cs1 | i | -12%
O=C1CCN(C(=O)Cc2ccccc2)c2ccccc21 | i | -5%
Nc1c(C(=O)Nc2ccc(Cl)c(C(=O)O)c2)sc2nc3c(cc12)CCCC3 | -11% | -13%
Cc1ccc(C(O)c2ncc(-c3ccccc3C)[nH]2)cc1F (centres undefined) | -22% | ?
CO[C@@H]1CN(C)C(=O)c2cc(NC(=O)NC3CCCCC3)ccc2OC[C@@H](C)N(CC2CCOCC2)C[C@@H]1C | 11% | -3%
Cc1cnc(-n2ncc(C(=O)NCCc3cccnc3)c2C)nc1-c1cccs1 | ? | -19%
CCn1ncc(NC(=S)NCCc2ccccc2)c1C(N)=O | -19% | -16%
Cc1ccc(C)c(NC(=O)CCC(=O)N/N=C/c2ccc3c(c2)OCO3)c1 | -2% | -6%
O=C(CCCn1c(=O)c2sccc2n(CC(=O)OCc2ccccc2)c1=O)NCc1ccco1 | i | -17%
CC(=O)C1=C(c2ccc(Cl)c(Cl)c2)N(C(C)=O)n2c(nnc2C2CCCCC2)S1 | -10% | -11%
Cc1ccnc(NC(=O)CN2C(=O)NC(C)(c3ccc4ccccc4c3)C2=O)c1 (centres undefined) | -12% | -25%
O=C(O)c1ccc(CSc2nnc(-c3ccncc3)n2-c2ccc(Br)cc2)cc1 | 1% | 2%
CC(C)c1ccc(N(CC(=O)N2CCOCC2)S(C)(=O)=O)cc1 | -13% | -14%
Cc1cc(C(=O)CSc2nnc(-c3ccc(F)cc3)o2)c(C)n1CC1CCCO1 (centres undefined) | . | -15%
Cc1cccc(NC(=O)CN2C(=O)CCS(=O)(=O)c3ccccc32)c1C | -21% | -2%
COc1ccc(CN2C[C@H]3CON(C)[C@H]3C[C@H]2c2ccc(-c3cccc(F)c3)cc2)cc1 | -11% | -18%
CCOC(=O)CC1=C(C(=O)OCC)C(c2ccc(C)o2)C(C#N)=C(N)O1 (centres undefined) | i | -11%
CC1CCN(c2oc(-c3ccc(COc4ccc(Cl)cc4)o3)nc2C#N)CC1 | -9% | 4%
OCCC1CN(Cc2ccc(C(F)(F)F)cc2)CCN1Cc1ccccc1 (centres undefined) | -25% | -29%
O=C(Nc1ccnn1C1CCN(C(=O)Cc2cccc(Cl)c2)CC1)C1CC1 | i | -4%
Clc1nc(CN2CCCCC2)nc2sc3c(c12)CCC3 | -1% | -8%
CC1CN(C(=O)c2ccccc2NS(=O)(=O)c2cccc([N+](=O)[O-])c2)CC(C)O1 (centres undefined) | i | 7%
O=C(NCCc1ccc(Cl)cc1)c1ccc2nc(CCc3ccccc3)oc2c1 | -9% | 4%
O=C(CCC(=O)c1ccc(Oc2ccccc2)cc1)Nc1ccc(Cl)cc1Cl | -10% | -2%
CCNC(=O)c1cc2ccccc2o1 | 8% | -7%
COc1ccccc1CCNC(=O)C(=O)NCC1OCCCN1S(=O)(=O)c1cc(C)ccc1C (centres undefined) | -9% | -18%
CCCN1CCC(=O)N(CCSc2ccc(NC(C)=O)cc2)CC1 | i | -1%
COc1ccc(-c2c(C(=O)c3ccccc3)[nH]c(N)c2C(=O)NC2CC2)cc1OC | -10% | -2%
COc1ccc(CC(=O)Nc2ccc(-c3cn4cccc(C)c4n3)cc2)cc1OC | . | ?
COc1cccc(C(C(=O)Nc2ccc(F)cc2)N(C(=O)Cn2nnc3ccccc32)C2CC2)c1 (centres undefined) | i | -13%
COc1cccc(/C=N/NC(=O)C[n+]2ccccc2)c1O | -18% | -6%
O=C(CSc1nc2ccccc2nc1Cc1ccccc1)N1CCCc2ccccc21 | i | -7%
Cc1ccc(C(=O)NNC(=O)C(C)Oc2ccc3ccccc3c2)o1 (centres undefined) | -2% | -16%
COC(=O)C1C(=O)C2=C(CC1C)NC(=O)CC2c1ccc(F)cc1 (centres undefined) | i | -9%
O=C(Cn1nnc(-c2ccccc2)n1)N/N=C/c1cccc([N+](=O)[O-])c1 | -16% | -19%
O=C(CCC1CCCC1)NC1CCCCC1 | . | -15%
CCCNC(=S)N1CCN(c2nc(-c3ccc(C)cc3)cs2)CC1 | -13% | -30%
Cc1ccc2c(C)c(C(=O)N3CCN(C4CCS(=O)(=O)C4)CC3)oc2c1C (centres undefined) | ? | -29%
Cn1c(C(=O)Nc2ccc3c(c2)OCCO3)cc2sccc21 | -12% | -8%
CC(=O)Nc1cccc(OCC(=O)Nc2cccc(S(=O)(=O)N3CCCC3)c2)c1 | i | -13%
CC(C(=O)N1c2ccccc2CCc2ccccc21)n1nnc(-c2ccc(N(C)C)cc2)n1 (centres undefined) | -23% | -19%
COc1ccc(Cc2nnc(NC(=O)Cn3cnc4c3c(=O)n(C)c(=O)n4C)s2)cc1OC | . | -10%
C#CCN(C[C@H]1[C@H](OC(=O)NC2CC2)[C@H](OC(=O)NC2CC2)C[C@H]2C(=O)N(c3ccccc3)C(=O)[C@@H]12)S(=O)(=O)c1ccc(C)cc1 | 0% | -11%
COC(=O)[C@@H]1[C@H](CCc2ccccc2)NC(=O)N(Cc2ccccc2)[C@@H]1C | i | -4%
Cc1ccc(-n2c(SCC(=O)NCc3ccco3)nc3c([nH]c4ccccc43)c2=O)cc1 | 10% | -2%

Single records, as listed above. Order of screens: Vaccinia mCherry | Vaccinia Venus
`Cn1c(C(=O)Nc2ccc3c(c2)OCCO3)cc2sccc21` is listed with -12% | -8%
`CC(=O)Nc1cccc(OCC(=O)Nc2cccc(S(=O)(=O)N3CCCC3)c2)c1` is listed with i | -13%

More structures.
compound | Vaccinia mCherry | Vaccinia Venus
O=C(CCCCCN1C(=O)c2cccc3cccc(c23)C1=O)NCCO | -23% | 9%
COc1ccc(OC)c(C(=O)CSc2nnc(Cc3cccs3)n2C)c1 | . | -2%
Cc1ccccc1NC(=O)CSc1ncc2c(n1)-c1ccccc1N(C)S2(=O)=O | -6% | -11%
COc1ccc(/C=N/NC(=O)c2cccc([N+](=O)[O-])c2)cc1OC(=O)c1ccccc1 | ? | ?
CCOC(=O)Cc1nc2ccccc2n(CC#N)c1=O | i | -17%
O=C(NC1CCOc2ccccc21)C1CCCC1 (centres undefined) | i | -11%
COc1ccc(Cl)cc1NC(=O)Cn1ccn(Cc2ccc(C)cc2)c(=O)c1=O | -16% | -20%
CC(=O)Nc1ccc(/C=C(\C#N)C(=O)NCc2ccccc2)cc1 | -9% | 1%
CN(C)c1ncnc2c1ncn2[C@H]1CN(Cc2ccc(-c3ccccc3)cc2)C[C@@H](CO)O1 | i | -19%
Cc1cc(CNC(=O)c2cnn(-c3nccc(-c4cc(C)sc4C)n3)c2C2CC2)on1 | -3% | -3%
O=C(Cc1ccc(OCC2CCCCC2)cc1)NO | -16% | 15%
CCOc1ccc(NC(=O)N2CCN(C(=O)c3nsc4ccccc34)CC2)cc1 | -20% | -15%
CCOc1cccc(C2C=C(c3ccc4c(c3)OCO4)NC(c3ccc(F)cc3)N2)c1O (centres undefined) | 14% | -8%
CCCC1(c2ccccc2)NC(=O)N(CC(=O)Nc2cc(OC)cc(OC)c2)C1=O (centres undefined) | i | -22%
Cc1cccc(N2CCN(C(=O)C3CCN(C(=O)c4cc5sccc5n4C)CC3)CC2C)c1 (centres undefined) | -2%[7.34 µM] | -4%[7.34 µM]
O=C(NCCc1c[nH]c2ccccc12)C(=O)NCC1OCCCN1S(=O)(=O)c1ccccc1 (centres undefined) | -10% | -16%
COC(=O)C(C(=O)Nc1ncccn1)C1CCCCCC1 (centres undefined) | . | -6%
Cc1ccccc1NC(=O)COC(=O)CC1CCCC1 | -16% | -12%
Cc1ccccc1NC(=O)C1CCN(S(=O)(=O)c2ccccc2)CC1 | -1% | -5%
CCOc1ccc(S(=O)(=O)Nc2cccc(OC)c2)c2cccnc12 | -15% | -12%
Cn1c(SCC(=O)N2CCCc3ccccc32)ncc(C(=O)Nc2ccc(F)cc2)c1=O | -2% | -16%
Cc1ccc(N(C(=O)CNC(=O)c2ccco2)C(C(=O)NC2CCCCC2)c2cccnc2)cc1F (centres undefined) | 0% | 10%
Cc1ccc(OCC(=O)Nc2ccc(Cl)cc2C(=O)c2ccccc2)cc1C | -24% | -18%
CC(=O)Nc1ccc(NC(=O)c2cc(-c3ccccc3)nc3ccccc23)cc1 | i | -10%
Cc1cc([N+](=O)[O-])nn1CC(=O)Nc1sc2c(c1C(N)=O)CCCC2 | ? | ?
S=C(Nc1ccc(Br)cc1Cl)NC1CCN(Cc2ccccc2)CC1 | -6% | ?
CC1CCCC(NCC(=O)Nc2ccc(C(N)=O)cc2)C1C (centres undefined) | ? | -7%
NNC(=O)c1ccc(CN2CCCCC2)o1 | i | 10%
O=C(c1ccc(N2CCCCS2(=O)=O)cc1)N1CCN(c2ccc(N3CCOCC3)nn2)CC1 | i | -6%
CCCCN(CC)Cc1c(C)[nH]c2ccccc2c1=O | i | -7%
CC(=O)O[C@@H]1C[C@H]2C(C)(C)C(=O)C=C[C@]2(C)[C@H]2CC[C@@]3(C)[C@H](c4ccoc4)OC(=O)[C@H]4O[C@]43[C@@]21C | 7.9µM* | ?
COc1ccc(CCNS(=O)(=O)c2cc(C(=O)O)c(Cl)cc2Cl)cc1 | i | -5%
COc1ccc2c3n(nc2c1)CCN=C3c1cc(Cl)c(N)c(Cl)c1 | i | ?
COCCCNC(=S)N/N=C/c1ccc(OC)cc1 | i | -1%
O=S(=O)(NCC(c1cccnc1)N1CCN(c2ccc(F)cc2)CC1)c1ccccc1 (centres undefined) | -19% | -8%
COc1cc(OC)cc(C(=O)NNC(=O)c2ccc3c(c2)OCCO3)c1 | i | 2%
COc1ccc2c(CNCC(C)c3ccccc3)c(C(=O)O)n(Cc3ccc(F)cc3Cl)c2c1 (centres undefined) | ? | ?
O=c1[nH]c2ccccc2n1Cc1ccc(Cl)cc1 | . | ?
Cc1nc(NS(=O)(=O)c2ccccc2)sc1C(C)(C)C | i | -8%
COCCOc1ccc(C(F)(F)F)cc1NC(=O)c1ccc(C)cc1 | -22% | -19%
CC(Oc1ccc(Cl)cc1Cl)C(=O)NCCC1=CCCCC1 (centres undefined) | i | -10%
CN(C)/N=C/c1ccc(Sc2ccccc2[N+](=O)[O-])o1 | ? | -14%
O=C(CSC1=NS(=O)(=O)c2cc(Cl)ccc2N1)NCc1ccccc1 | i | -9%
NC(=O)COc1ccc(Cc2ncc(C(F)(F)F)cc2Cl)cc1 | -8% | 0%
Cc1cc2c(cc1S(=O)(=O)N1CCOCC1)NC(=O)CO2 | -7% | 3%
O=C(N/N=C/c1ccccn1)c1ccc([N+](=O)[O-])cc1 | -6% | -4%
C/C(=N\NC(=O)C1CC1)c1ccc(Cl)c(Cl)c1 | -1% | -16%
Cc1ccc(C2(C)NC(=O)N(CC(=O)Nc3ccc(S(=O)(=O)Nc4nccs4)cc3)C2=O)cc1 (centres undefined) | i | -11%
O=C(O)c1ccc(-n2ccnc2)c([N+](=O)[O-])c1 | -12% | -13%
COc1ccc([N+](=O)[O-])cc1N(CC(=O)NCCCOC(C)C)S(C)(=O)=O | i | -4%
C/C(Cn1nc([N+](=O)[O-])cc1C)=N\NC(=O)COc1c(Cl)cc(Cl)cc1Cl | ? | -28%
O=C(NCCCc1ccccc1)c1ccccc1O | -18% | -17%
Cc1ccccc1CS(=O)(=O)CCC(=O)O | -1% | 8%
CC1CCN(S(=O)(=O)c2c[nH]c(=O)[nH]c2=O)CC1 | -12% | -5%
O=C(O)C1C2CCC(O2)C1C(=O)NC1CCCCC1 (centres undefined) | -5% | -15%
Cc1cc(NC(=O)CCC(=O)N(c2cccnc2)C(C(=O)NC2CCCC2)c2ccccc2)no1 (centres undefined) | -4% | 0%
O=C(OCc1c(-c2ccccc2)ncc2ccccc12)c1cccs1 | -21% | ?
Cc1cccc(NC(=O)C2CCC(CNC(=O)[C@@H]3Cc4ccccc4CN3)CC2)c1 (some centres undefined) | i | -18%
CN(C)c1ccc(/C=C/c2ccnc3ccc(O)cc23)cc1 | -18% | 5%
Cc1c(N(C)C)c(=O)n(-c2ccccc2)n1C | -6% | -7%&-14%
CCOC(=O)[C@H]1[C@H]2COc3ccc(Br)cc3[C@@H]2N2C(=O)CN(Cc3ccco3)C(=O)[C@@]12C | i | -6%
Cc1nc(C)n(C(=O)N(c2ccccc2)c2ccccc2)n1 | -14% | -11%
